# Compound activity: PubChem BioAssay, several laboratories
# CSC inhib – cancer stem cell inhibition; inhibition, % at 7.5 µM; 1.1% of 300,000 active; cancer stem cell-like cells viability, luminescence; AID 2717;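 active = mean at 75% or more and at least half the replicates too; inconclusive = mean and replicates disagree; tested in HMLE shEcad cells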;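 note: 0% = median of negative and 100% = median of positive control wells; the first replicate is given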
# MT1-MMP act inh – blocks activation of human MT1-MMP; AID 651647; GFP/RFP ratio change, % at 20 µM; 0.061% of 360,000 active; HT1080 RFP-PRO-GFP cells, GFP/RFP ratio fluorescence, overnight; percent of plate control window, DMSO zero; P50281;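 active = GFP/RFP ratio change of at least 30% with cell ATP level not reduced by more than half and red fluorescence within 50% of control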; note: strong numbers were not always called active
#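 Test system: HT1080 cells expressing an RFP-PRO-GFP fluorescent reporter construct / Compound dosing: single-point 20 µM compound, 1% DMSO / Schedule: cells overnight before dosing, compound overnight, 37 °C, 5% CO2 / Evaluation: GFP/RFP fluorescence ratio / Control set: DMSO and RFP-L50D-GFP cell wells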
# eIF4H inh – inhibitors of RNA binding by human eIF4H; Q15056; eIF4H fluorescence polarization binding assay; inhibition, % at 35 µM; 0.94% of 290,000 active; AID 2012;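 active = 50% or more with normal probe brightness, or confirmed in later tests; inconclusive = above 50% with abnormal brightness, or retests that disagree; inactive = below 50% or failed in later tests; about a fifth of its hits are not listed in these tables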;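 note: calls also rest on retests at 20 µM and on dose response follow-up; 0% = protein and probe with vehicle and 100% = probe without protein; strong numbers were not always called active; many hits fall short of the cut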
# UUG fidelity – yeast start codon fidelity modulation; 0.13% of 350,000 active; activity score, % at 18.7 µM; S. cerevisiae UUG-firefly luciferase reporter, luminescence/redox ratio; AID 602363;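 active = replicate mean at a twofold rise or more, about +100% in these data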;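 note: firefly luciferase made from a UUG start codon reports start codon fidelity; reporter light over untreated wells divided by growth signal over untreated wells; some hits fall short of that in this replicate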
# Rce1 inh – blocks yeast Ras-converting enzyme; Q03530; yeast membranes, quenched prenylated peptide cleavage fluorescence; calls only; 0.27% of 290,000 active; AID 2563;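 active = fall in fluorescence gain of 50% or more versus controls, with final raw signal at or below 3038400; inconclusive = same 50% fall but final raw signal above 3038400; inactive = fall in fluorescence gain under 50%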;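 note: plate controls were neutral control wells for no effect and wells lacking membranes for full effect; tested at 10 µM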
# Env fusion inh – blocks HIV Env-driven cell-cell fusion. HeLa-JRFL Env/CEM21 cell fusion, luciferase. 1.1% of 360,000 active. inhibition, % at 12.3 µM. AID 651610;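 active = mean replicate inhibition score of at least 50 and every replicate individually at or above 50; inconclusive = only one of the two criteria met; inactive = mean below 50 and not all replicates reaching 50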;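 note: 0% = plate neutral controls and 100% = maraviroc near 300 nM; one replicate is shown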
# PABP FP inh – blocks human PABP binding to poly(A) RNA. fluorescence polarization. P11940. 1% of 290,000 active. inhibition, % at 35 µM. AID 2014;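 active = 50% or more with normal probe brightness, or confirmed in later tests; inconclusive = above 50% with abnormal brightness, or retests that disagree; inactive = below 50% or failed in later tests; about a fifth of its hits are not listed in these tables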;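 note: calls also rest on retests at 20 µM and on dose response follow-up; controls were probe without protein and protein plus probe with vehicle; some compounds called inactive have numbers as strong as hits; many hits fall short of the cut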
# Target sequence (P11940 whole entry, looked up): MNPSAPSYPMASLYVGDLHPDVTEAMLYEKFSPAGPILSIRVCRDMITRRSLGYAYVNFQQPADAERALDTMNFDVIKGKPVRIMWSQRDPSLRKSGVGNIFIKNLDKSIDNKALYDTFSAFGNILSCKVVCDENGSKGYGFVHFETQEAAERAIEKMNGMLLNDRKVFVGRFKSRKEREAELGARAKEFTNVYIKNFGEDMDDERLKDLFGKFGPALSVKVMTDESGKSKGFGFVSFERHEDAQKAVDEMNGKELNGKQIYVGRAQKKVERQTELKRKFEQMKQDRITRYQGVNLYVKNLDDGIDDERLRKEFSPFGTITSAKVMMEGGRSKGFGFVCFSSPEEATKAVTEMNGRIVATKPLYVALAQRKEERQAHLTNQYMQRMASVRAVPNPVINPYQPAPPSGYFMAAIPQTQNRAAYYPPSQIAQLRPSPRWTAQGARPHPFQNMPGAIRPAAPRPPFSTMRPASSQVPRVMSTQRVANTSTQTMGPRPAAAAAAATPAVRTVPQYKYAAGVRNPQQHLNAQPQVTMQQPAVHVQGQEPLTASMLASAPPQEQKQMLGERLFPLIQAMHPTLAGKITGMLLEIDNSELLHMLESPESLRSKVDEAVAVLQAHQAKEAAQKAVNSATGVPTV
# MT1-MMP act inh RFP – also measured in MT1-MMP act inh; calls as there; RFP signal change, %; measured here: RFP expression control read;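 0 = vehicle wells; hits needed this value within 50% of zero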
# * = called active by the depositor; i = inactive; ? = inconclusive; . = no result given; & = joins results of further samples. The list is partial. The share of hits here may be higher or lower than overall.
SMILES,CSC inhib,MT1-MMP act inh,MT1-MMP act inh RFP,eIF4H inh,UUG fidelity,Rce1 inh,Env fusion inh,PABP FP inh
COc1ccccc1N(Cc1ccccc1)S(=O)(=O)c1cccc(C(=O)Nc2ncccc2C)c1,2,-3,-6,.,.,i,2,.
Cn1c(=O)c2c(nc(SCc3cccnc3)n2Cc2ccccc2)n(C)c1=O,-10,1,-1,-8,-6,i,14,-8
C/C=C/c1cnc2c(c1)C(=O)N([C@H](C)CO)C[C@H](C)[C@@H](CN(C)C(=O)CN1CCOCC1)O2,.,2,1,.,-13&-9,.,?,.
O=C(CSc1nnnn1-c1cccc(Cl)c1)Nc1ccc2c(c1)CCC2,2,.,.,1,.,i,.,1
CN(C)c1nc(N(C)C)nc(N(C#N)CN2C(=O)c3ccccc3C2=O)n1,.,.,.,2,.,i,.,15
CCOC(=O)Cn1c(COc2ccccc2OC)[n+](C)c2ccccc21,-15,5,6,.,-32,i,-11,.
S=C(Nc1ccc2nc(-c3ccccn3)c(-c3ccccn3)nc2c1)N1CCCCCC1,5,-34,-2,45,.,i,-13,-11
Cc1cc(NC(=O)Cn2c(=O)oc3ccc(Cl)cc32)no1,-35,2,-1,-10,-9,i,-8,2
O=C(CN1CCN(S(=O)(=O)c2ccc(Cl)s2)CC1)N1CCCCC1,.,2,-3,.,-8,.,-17,.
Cc1c(OCC(=O)NCc2cccnc2)ccc2c3c(c(=O)oc12)CCCC3,-15,7,1,-7,-4,i,-16,-8
CS(=O)(=O)c1nc(S(=O)(=O)c2ccc(Cl)cc2)c(NCCCn2ccnc2)s1,16,-5,-8,6,5,i,-6,14
Cc1cc(C)cc(NC(=O)C(=O)NCC2CCCN2S(=O)(=O)c2cccs2)c1 (stereo not drawn),-11,0,-4,.,-5,i,.,.

# Structures from the list above that contain an aryl thioether with sulfur outside any ring:
SMILES,CSC inhib,MT1-MMP act inh,MT1-MMP act inh RFP,eIF4H inh,UUG fidelity,Rce1 inh,Env fusion inh,PABP FP inh
Cn1c(=O)c2c(nc(SCc3cccnc3)n2Cc2ccccc2)n(C)c1=O,-10,1,-1,-8,-6,i,14,-8
O=C(CSc1nnnn1-c1cccc(Cl)c1)Nc1ccc2c(c1)CCC2,2,.,.,1,.,i,.,1

# Following part
SMILES,CSC inhib,MT1-MMP act inh,MT1-MMP act inh RFP,eIF4H inh,UUG fidelity,Rce1 inh,Env fusion inh,PABP FP inh
COc1ccccc1NS(=O)(=O)c1cccc(NC(=O)NC2CCCCC2)c1,6,1,-9,-4,.,i,.,-14
Cc1cccc(NC(=O)c2c(C)nn(-c3ccccc3)c2Cl)c1,-8,-3,-4,-15,.,i,-13,-9
Cc1cc(C(=O)CSc2ccccc2)cc(C)c1O,-3,1,-2,0,4,i,-22,3
CCOC(=O)c1[nH]cnc1C(=O)Nc1ccccn1,10,-1,4,-4,1,i,.,6
COc1cc(Cl)c(C)cc1NC(=O)c1ccc2c(SCC(=O)O)c3c(nc2c1)CCCC3,7,1,1,49,.,i,11,3
Cc1ccc(N2CC(C(=O)Nc3cc(Cl)ccc3-n3cncn3)CC2=O)cc1 (stereo not drawn),-16,0,-3,.,.,i,3,.
O=C(NNC(=O)C1CCC1)c1ccccc1,2,3,5,.,-5,.,-12,.
O=C(Nc1ccccc1)c1cc(C2CCCCN2C(=O)c2ccc3c(c2)CCO3)on1 (stereo not drawn),.,0,3,.,-2,.,11,.
Cc1ccc(N2CC(NS(=O)(=O)c3cccnc3)CC2=O)cc1 (stereo not drawn),-11,-2,2,.,-9,i,-15,.
COc1cc2c(cc1OC)CN(c1nc(CN3CCOCC3)nc3sc4c(c13)CCCC4)CC2,45,-26,-22,-3,.,i,22,-10
COc1ccc2oc(=O)c(C(=O)Nc3ccccc3-c3ccccc3)cc2c1,.,-4,-1,-7,-12&1,i,.,1
Cc1ccnc(NC(=O)CNC(=O)Cc2cccc3ccccc23)c1,-4,3,0,.,.,i,-72,.
Cc1sc(NC(=O)CS(=O)(=O)c2ccccc2)c(C(N)=O)c1C,-19,0,2,.,12,i,-10,.
C[C@H](NC(=O)[C@H]1N2C(=O)c3ccccc3C2SC1(C)C)C(=O)N1CCCCC1 (stereo partly drawn),-3,-3,1,1,8,i,1,15
CC(Oc1ccccc1)C(=O)N=Nc1c(O)[nH]c2ccc(Br)cc12 (stereo not drawn),-15,-3,1,-3,.,i,3,-7
CCN(CC)C(=O)Cn1c(=O)n(-c2ccccc2)c(=O)c2c3c(sc21)CCC3,-6,4,5,-5,-9,i,-29,0
COc1ccc(N2CCN(C(=O)Cc3cccs3)CC2)cc1,0,-3,1,-4,-8,i,.,11
Cc1[nH]c(C)c(S(=O)(=O)N2CCC(C)CC2)c1C(=O)N1CCCC1,-21,-2,-2,-4,-13,i,-3,7
CC1=NN(C(=O)CCc2ccccc2)C(O)(c2ccncc2)C1 (stereo not drawn),-2,-1,2,-6,.,.,13,-14
O=C(O)c1ccc(Nc2nc3c(s2)CCCC3)cc1,-7,5,5,10,.,i,38,14
O=C(COC(=O)c1ccc([N+](=O)[O-])o1)Nc1ccc(N2CCOCC2)cc1,-12,-3,0,.,-14,.,-7,.
O=C(O)c1cnn(-c2nc(-c3cccc(F)c3)cs2)c1C(F)(F)F,-5,-2,7,-10,.,i,-2,23
Cc1ccc(S(=O)(=O)Nc2cc3c4c(c2)CCN4C(=O)CC3)cc1,23,12,6,.,.,i,21,.
S=C1NCN(CCc2ccccc2)CN1,-16,-1,-4,2,-18,i,1,2

# Eight compounds from above, sorted by number of heavy atoms, ascending:
SMILES,CSC inhib,MT1-MMP act inh,MT1-MMP act inh RFP,eIF4H inh,UUG fidelity,Rce1 inh,Env fusion inh,PABP FP inh
S=C1NCN(CCc2ccccc2)CN1,-16,-1,-4,2,-18,i,1,2
O=C(O)c1ccc(Nc2nc3c(s2)CCCC3)cc1,-7,5,5,10,.,i,38,14
COc1ccc(N2CCN(C(=O)Cc3cccs3)CC2)cc1,0,-3,1,-4,-8,i,.,11
CC1=NN(C(=O)CCc2ccccc2)C(O)(c2ccncc2)C1 (stereo not drawn),-2,-1,2,-6,.,.,13,-14
O=C(O)c1cnn(-c2nc(-c3cccc(F)c3)cs2)c1C(F)(F)F,-5,-2,7,-10,.,i,-2,23
Cc1ccnc(NC(=O)CNC(=O)Cc2cccc3ccccc23)c1,-4,3,0,.,.,i,-72,.
O=C(COC(=O)c1ccc([N+](=O)[O-])o1)Nc1ccc(N2CCOCC2)cc1,-12,-3,0,.,-14,.,-7,.
CCN(CC)C(=O)Cn1c(=O)n(-c2ccccc2)c(=O)c2c3c(sc21)CCC3,-6,4,5,-5,-9,i,-29,0

# Next section.
SMILES,CSC inhib,MT1-MMP act inh,MT1-MMP act inh RFP,eIF4H inh,UUG fidelity,Rce1 inh,Env fusion inh,PABP FP inh
COCC(=O)Nc1cc(C)cn(Cc2cccc(C(F)(F)F)c2)c1=O,-7,5,2,-5,0,i,10,0
O=C(CN1CCN(c2ccccn2)CC1)N1c2ccccc2Sc2ccc(C(F)(F)F)cc21,14,-8,-7,-1,-13,i,-12,27
Cc1nc(NC(=O)c2c(-c3ccccc3)noc2C)sc1C(=O)N(C)C,24,1,8,-4,5,i,-4,16
CC(=O)CNc1ccc(S(=O)(=O)N/N=C/c2ccccc2)cc1,1,-9,-4,-2,.,i,-47,-14
COc1ccc(C(C)(C)C)cc1NC(=O)CCN1C(=O)NC(C)(C)C1=O,0,2,1,.,-8,.,.,.
Cc1c(C(=O)N2CCCC2)c(S(=O)(=O)Nc2ccccc2)c(C)n1C,-2,-3,2,1,17,i,-24,0
Cc1cccc(/C=N/n2c(C)cc(C)c(C#N)c2=O)c1,-2,18,-3,4,-9,i,-48,-9
COC(=O)C1(CCSC)NC(c2ccc(O)c(OC)c2)C2C(=O)N(c3ccc(C)cc3)C(=O)C21 (stereo not drawn),-6,2,3,0,.,i,-17,-2
S=C(NCc1ccc2[nH]c3c(c2c1)CCCC3)Nc1ccccc1Cl,.,0,-7,15,-1,i,5,1
CCN(N=O)[C@@H](Cc1ccccc1)CN(N=O)[C@@H](Cc1ccccc1)CN(C)N=O,-9,6,2,-14,-17,i,36,3
O=S1(=O)CCN2C(Cc3ccc(SC(F)F)cc3)=CSC2=N1,-1,0,-1,2,.,i,.,6
Cc1cccc(OC(C)C(=O)N2CCc3ccccc3C2)c1 (stereo not drawn),-11,-2,-3,4,-39,i,12,-5
CCN(CC(=O)Nc1ccc(NC(C)=O)cc1)C(=O)CCCc1nc2ccccc2s1,7,-2,-2,.,6,.,-7,.
CCC(=O)Nc1cccc(C(=O)c2ccc(C)c(C)c2)c1,4,7,-8,2,.,i,-56,1
COc1ccc(S(=O)(=O)NCCCCC(=O)O)cc1C(=O)O,-24,1,6,2,-12,.,-1,1
Cc1cccc(CCNS(=O)(=O)c2ccc3c(c2)NC(=O)C(C)S3)c1 (stereo not drawn),-23,1,5,-2,-12,i,5,-3
C/C(=N\Nc1ccc(F)cc1)c1ccc(N2CCOCC2)c(F)c1,-13,3,2,4,0,i,6,-8
CCOC(=O)Cn1c(=O)c2c(nc3n2CCS3)n(C)c1=O,9,-2,4,-2,-7,i,2,2
COc1ccc(Cc2c(-c3ccc(F)cc3)nc3ccc(Br)cn23)c(C)c1,.,1,1,.,-2,.,-44,.
NS(=O)(=O)c1ccc(NC(=O)COC(=O)CC2Sc3ccccc3NC2=O)cc1 (stereo not drawn),-15,-3,6,.,-3,.,-5,.
COCCCNc1cc(C)nc2ccccc12,-1,4,8,10,-19,i,-19,2
CSCC[C@H](NC(=O)c1ccc(Br)o1)c1nnc2ccccn12,-8,-1,2,-1,-3,i,3,5
CC1CCCC(C)N1C(=O)COC(=O)c1ccc(Br)o1 (stereo not drawn),-31,1,2,.,-33,.,.,.
COc1ccc(Cc2nnc(NC(=O)Nc3ccc(F)cc3)s2)cc1OC,-14,6,-5,-2,.,i,14,2
O=C(NCc1ccco1)c1cnc2sccn2c1=O,-3,3,3,-2,-33,i,-12,-1
O=C(Nc1cccnc1)c1cccc(S(=O)(=O)Nc2ccccc2F)c1,.,0,-8,.,-13,.,27,.
Cc1ccc(SCc2cc(=O)n3[nH]c(C)nc3n2)cc1,-5,5,4,-1,-9,i,.,9
Cc1ccccc1OCC(=O)NNC(=O)c1cc(S(=O)(=O)N(C)C)ccc1N1CCCC1,-1,0,1,-11,-3,i,.,-2
O=C(NC(=S)Nc1c(Cl)cc(Cl)cc1Cl)c1ccccc1,.,-2,-8,.,-22,.,-12,.
CCOc1ccc(NC(=O)C2CC(=O)N(C)C(=Nc3ccc4c(c3)OCO4)S2)cc1 (stereo not drawn),.,3,-4,-2,1,i,.,2
CC(=O)c1cc2c(cc1N/C(=N/S(=O)(=O)c1ccc(C)cc1)c1ccccc1)OCO2,26,-4,-2,-6,7,i,21,0
Cc1ccc(-c2nc(SCC(N)=O)c(C#N)c3c2CCCC3)cc1,2,2,-7,4,.,i,-92,4
CC(C)S(=O)(=O)C/C(N)=N/OC(=O)c1cc(Cl)cc(Cl)c1,8,2,2,-7,-15,i,-19,5
CC(C)N(Cc1ccccc1)C(=O)COC(=O)C1CCCCC1,12,-1,2,.,-12,.,16,.
CC[n+]1c(-c2ccccc2)csc1Nc1c(C)n(C)n(-c2ccccc2)c1=O,-6,0,-5,-11,.,i,6,-5
